RE007 growth inh – qHTS Assay for Inhibitors of the HIV-1 protein Vpr; Potency, µM (highest dose often 92.2 µM), without a hit: at the highest dose activity change, negative = less growth; S. pombe RE007 Vpr strain, BacTiter-Glo ATP luminescence, 24 h; control for the full effect not named in the record; 360,000 compounds, 0.21% hits; AID 651644, 2012; active = well fitted falling curve with a large enough effect; inconclusive = small, poorly fitted or top-dose-only effect; inactive = no such curve, though single readings can be large or run the other way;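 also: % is scaled to controls: 0 for no effect and ±100 for the full control effect; nearly all actives have a fitted effect of over 50% in size; the assay follows cell death caused by Vpr and the record does not say whether a fall means rescue or toxicity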
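Fission yeast strain RE007, carrying one chromosomally integrated HIV-1 vpr copy, was seeded at OD 0.01 in PMG+AL medium with 23 nL pinned compound. After 24 h at 30 °C and 99% humidity, viability was read by BacTiter-Glo luminescence.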
LASV entry inh – qHTS for Inhibitors of binding or entry into cells for Lassa Virus | 300,000 compounds, 1.2% hits | Potency, µM (titrated, usually from 37.9 µM), for the others: at the top dose activity change, negative = inhibition, hits mostly inhibitors | Lassa virus pseudotype entry inhibition, cell reporter; control for the full effect not named in the record; active means well fitted inhibition curve with a large enough effect; inconclusive means small, poorly fitted or top-dose-only effect, or effect the other way; inactive means flat fitted curve, though single readings scatter; tested in HEK293 cells; also: % is scaled to controls: 0 for no effect and ±100 for the full control effect; nearly all actives have a fitted effect of over 50% in size; luciferase read-out
NS1 function inh – qHTS Assay for Inhibitors of Influenza NS1 Protein Function | AID 2326, 2010 | 270,000 compounds, 0.4% hits | Potency, µM (titrated, usually from 46.1 µM), for the others: top-dose activity, positive = more growth | S. cerevisiae slowed by influenza A NS1, growth recovery by OD600; active means well fitted rising curve with a large enough effect; inconclusive means small, poorly fitted or top-dose-only effect; inactive means no such curve, though single readings can be large or run the other way; also: nearly all actives have a fitted effect of over 50% in size
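S. cerevisiae expressing influenza A NS1, grown in glucose, washed, then diluted 1:100 into pH 6.0 -URA galactose medium with 23 nl compound. Growth recovery read as OD600; NS1-free strain serves as control.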
SARS PLP yeast – qHTS of Yeast-based Assay for SARS-CoV PLP | S. cerevisiae expressing SARS-CoV PLpro, growth rescue; control for the full effect not named in the record | 330,000 compounds, 0.19% hits | AID 485353, 2010 | Potency, µM (doses to about 32.9 µM), for inactives: at the top dose activity, positive = growth rescue; active means well fitted rising curve with a large enough effect; inconclusive means small, poorly fitted or top-dose-only effect; inactive means no such curve, though single readings can be large or run the other way; also: 0% is about no effect; nearly all actives have a fitted effect of over 55% in size; growth read by luminescence after 48 h
Cruzain inh noDet – qHTS Assay for Promiscuous and Specific Inhibitors of Cruzain (without detergent); Cruzipain (Trypanosoma cruzi), P25779; purified cruzain, Z-FR-AMC fluorescence, no detergent; Potency, µM, for the others: max response, negative = inhibition, usual class: inhibitors; 200,000 compounds, 2.3% hits; AID 1476, 2009;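 also: plate controls were enzyme without inhibitor for no effect and buffer without enzyme for full effect; nearly all actives have a fitted effect of over 40% in size; top concentration of the series not given in the record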
Target sequence (P25779 123-467 limits assumed): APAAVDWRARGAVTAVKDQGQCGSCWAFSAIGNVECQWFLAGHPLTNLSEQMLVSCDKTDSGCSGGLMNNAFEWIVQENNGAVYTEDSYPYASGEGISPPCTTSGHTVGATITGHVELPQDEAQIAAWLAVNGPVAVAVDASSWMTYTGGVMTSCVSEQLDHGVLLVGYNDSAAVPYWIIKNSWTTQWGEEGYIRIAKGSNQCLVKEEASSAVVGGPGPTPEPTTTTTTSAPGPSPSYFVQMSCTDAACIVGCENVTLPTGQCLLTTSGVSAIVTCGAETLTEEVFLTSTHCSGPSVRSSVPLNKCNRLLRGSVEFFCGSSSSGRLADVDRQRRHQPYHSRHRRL
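Detergent-free condition (0.00005% Triton X-100) in acetate buffer pH 5.5 with DTT. 1.5 nM enzyme and compound were pre-mixed 15 min, then 2 uM Z-FR-AMC substrate added; reaction progress from fluorescence change between first and third reads (60 s).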
Cruzain inh Det – qHTS Assay for Promiscuous and Specific Inhibitors of Cruzain (with detergent) | Cruzipain (Trypanosoma cruzi), P25779 | purified cruzain, Z-FR-AMC fluorescence, 0.01% Triton | Potency, µM, without a hit: max response, negative = inhibition, usual class: inhibitors | 200,000 compounds, 0.43% hits;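 also: plate controls were neutral wells for no effect and buffer without enzyme for full effect; nearly all actives have a fitted effect of over 40% in size; top concentration of the series not given in the record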
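Cruzain (1.5 nM) preincubated 15 min at RT with compound in 100 mM sodium acetate pH 5.5, 5 mM DTT, 0.01% Triton X-100. Reaction started with 2 uM Z-FR-AMC; AMC fluorescence (ex 360/em 450 nm) change over 60 s gave rate.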
Marburg entry inh – qHTS for inhibitors of binding or entry into cells for Marburg Virus. Marburg virus pseudotyped entry inhibition, cell reporter; control for the full effect not named in the record; about a third of the inactives were read at about 46 µM. 300,000 compounds, 1.8% hits. Potency, µM (highest dose often 37.8 µM), without a hit: top-dose activity change, negative = inhibition, most hits filed as inhibitors; active = well fitted inhibition curve with a large enough effect; inconclusive = small, poorly fitted or top-dose-only effect, or effect the other way; inactive = flat fitted curve, though single readings scatter; tested in HEK293 cells; about a fifth of its hits are not listed in these tables; also: % is scaled to controls: 0 for no effect and ±100 for the full control effect; luciferase read-out
2A StopGo – High Throughput Screening for Foot and Mouth Disease Virus Antivirals; 410,000 compounds, 1.2% hits; AID 1159524, 2015; Potency, µM (series often up to 57.9 µM), without a hit: top-dose signal change, negative = less light; human cells with a luciferase reporter of 2A StopGo recoding; control for the full effect not named in the record; active = well fitted falling curve with a large enough effect; inconclusive = small, poorly fitted or top-dose-only effect; inactive = no such curve, though single readings can be large or run the other way; tested in HEK293T cells; also: % is scaled to controls: 0 for no effect and ±100 for the full control effect; nearly all actives have a fitted effect of over 45% in size; luciferase light after 4 h
* = called active by the depositor; ? = inconclusive; nt = no result given; & = joins results of further samples; [ ] = another dose, or the depositor's remark. Unless noted, calls follow the shape of the dose curve; as a rule, active = well fitted curve in the direction sought with a large enough effect; inconclusive = small, poorly fitted or top-dose-only effect, or another doubt; inactive = no such curve, though single readings can be large; an effect the other way counts as inactive or inconclusive. Potency is read from the fitted curve at half-maximal effect.

Compound	SARS PLP yeast	Cruzain inh noDet	NS1 function inh	2A StopGo	Marburg entry inh	RE007 growth inh	Cruzain inh Det	LASV entry inh
CN(C)Cc1ccccc1COc1ccccc1	17%	-3%	14%	-11%	4%	3%	1.1%	6%
O=c1cc(NCc2ccccc2)nc2n1CCCS2	4%	25µM*	-9%	?	14%&14%	-7%	-2.7%	17%
CC(NC(=O)COc1cc(=O)n(C)c2ccccc12)c1ccc2c(c1)OCCO2 (configuration not stated)	5%	8%	-1%	-2%	3%	-10%[3.69 µM]	7.3%	-11%
O=[N+]([O-])c1cccc(-c2ccc(SCc3ccccn3)nn2)c1	-2%	nt	nt	48%[activator]	5%[46.1 µM]	-21%	nt	10%
Cc1ccc(S(=O)(=O)N2CCCC(C)C2)cc1 (configuration not stated)	1%	nt	25%	1%	nt	3%	nt	nt
Cc1ccc(-n2nc(C)c3c(C(=O)O)cc(C)nc32)cc1	nt	3%	nt	-9%	nt	nt	-0.1%	10%[46.1 µM]
CC(C)C(=O)NCC(c1ccc2c(c1)OCO2)N1CCN(c2ccccc2)CC1 (configuration not stated)	nt	-2%	nt	-8%	nt	nt	-1.0%	13%[46.1 µM]
CC(C)(C)OC(=O)N1CCC(c2c(C(=O)N3CCN(c4ccccn4)CC3)cnn2-c2cccc(F)c2)CC1	nt	-9%	nt	-21%	nt	nt	0.0%	?
Cc1cccc(NC(=O)CN(C)S(=O)(=O)c2ccc3c(c2)c(=O)n(C)c(=O)n3C)c1	nt	-3%	nt	1%	8%[46.1 µM]	nt	0.9%	-5%[46.1 µM]
Fc1ccc(-c2ccnc3nc(N4CCOCC4)nn23)cc1	-3%	-9%	3%	-1%	-1%	11%	-0.8%	8%
O=C(CCN=C1NS(=O)(=O)c2ccccc21)OCc1nnc(-c2ccc([N+](=O)[O-])cc2)o1	1%	nt	nt	-3%	nt	-5%	nt	3%
O=[N+]([O-])c1cc(S(=O)(=O)N2CCCCCC2)ccc1F	-70%	-12%	-24%	?	11µM*	0%	-6.3%	?
Cc1cnc(CNC(=O)C2CCC(=O)N(CCc3cccc(F)c3)C2)[nH]1 (configuration not stated)	-1%	nt	-2%	-21%	nt	4%	nt	nt
CCCC(=O)N1CCN(c2nc3c(OC)ccc(Cl)c3s2)CC1	nt	nt	-8%	-10%	-24%[46.1 µM]	-20%	nt	-29%[46.1 µM]
O=C(Nc1ccnn1C1CCN(C2CCCC2)CC1)c1ccccc1Cl	?	nt	7%	2%	-5%[46.1 µM]	-6%	nt	22%[46.1 µM]
Nn1c(SCC(=O)Nc2nnc(-c3ccccc3)o2)nnc1C1CC1	-8%	nt	nt	-21%	?	-2%	nt	-5%
COC(=O)C1=C(C)N=C2SC(C#N)=C(N)N2C1c1cccc(OC)c1 (configuration not stated)	9%	-5%	-1%	-15%	-7%	-4%	1.1%	-20%
O=C(c1ccc(NC2=NC3CS(=O)(=O)CC3S2)cc1)N1CCN(c2ccc([N+](=O)[O-])cc2)CC1 (configuration not stated)	2%	nt	-11%	-9%	1%[46.1 µM]	-1%	nt	10%[46.1 µM]
CC(C(O)C12CC3CC(CC(C3)C1)C2)N1CCCCC1 (configuration not stated)	0%	nt	nt	-25%	?	11%	nt	-11%
Cc1ccc(C(C[N+](=O)[O-])c2c(C)cc3ccccn23)cc1 (configuration not stated)	-10%	-1%	-6%	?	-29%	-25%	-2.4%	-12%
CC(=O)OC1C=CCC2C(=O)c3cccc(O)c3C(O)C12 (configuration not stated)	nt	nt	nt	-16%	19%	11%	nt	13%
COCCC(=O)N(Cc1ccc2c(c1)OCO2)C(C(=O)NC1CCCCC1)c1ccncc1 (configuration not stated)	5%	-5%	-5%	-1%	1%	15%	4.3%	-4%
CCn1ncc(C2=NOC(C(=O)NCc3ccc(Cl)cc3)C2)c1C (configuration not stated)	-7%	5%	-91%	-28%	?	-25%	1.3%	-23%
COc1ccccc1N1CCN(C2C(=O)c3ccccc3N2C(C)=O)CC1 (configuration not stated)	nt	-4%	nt	-9%	nt	nt	-0.4%	4%[46.1 µM]
O=C(O)COn1c(-c2ccc(Cl)cc2)nc2ccc(Cl)cc21	0%	nt	0%	49%[activator]	13%[46.1 µM]	-17%	nt	2%
CCOC(=O)c1sc(NC(=O)CSc2nc3c(cc2C#N)CCCCCC3)c(C#N)c1C	-4%	?	-8%	-19%	7%	-8%	-3.1%	0%
O=C(Nc1ccc(S(=O)(=O)NC2=NCCCCC2)cc1)c1ccco1	-1%	nt	nt	7%	?	18%	nt	-20%
O=c1cc(O)n(C2CCCCCC2)c(=O)[nH]1	-3%	nt	12%	-24%	nt	17%	nt	nt
O=C(C1=C[C@H](c2ccc(Br)cc2)C[C@H](OCc2ccc(CO)cc2)O1)N1CCOCC1	1%	nt	-7%	-23%	nt	1%	nt	nt
Cc1csc(NC(=O)CSc2nnc(-c3ccoc3C)n2C(C)c2ccccc2)n1 (configuration not stated)	1%	nt	0%	-20%	nt	17%	nt	nt
CCOC(=O)N1CCN(C(=S)NC(=O)c2cncc(Br)c2)CC1	-7%	12%	9%	-5%	2%	4%	-0.9%	9%
COc1cccc(NC(=O)CN2C(=O)CSc3ccc(S(=O)(=O)N4CCC(C)CC4)cc32)c1	nt	nt	?	-15%	?	-11%	nt	-11%[46.1 µM]
CCOc1ccc(N2C(=O)CC(N3CCN(c4ccccc4F)CC3)C2=O)cc1 (configuration not stated)	-8%	14%	-7%	-11%	-9%	-8%	-0.3%	-1%
COc1ccc(NS(=O)(=O)c2cc(NC(=O)c3ccc(F)cc3)ccc2OC)cc1	-7%	15%	13%	-27%	?	-1%	-1.0%	?
Cc1nc(N[C@@H](Cc2ccccc2)C(=O)O)c2oc3ccccc3c2n1	0%	17%	7%	12%	1%	-7%	-1.7%	?
O=C(COc1ccc(F)cc1)NNC(=O)c1cc2ccccc2oc1=O	13%	-15%	6%	9%	3%	-2%	-6.7%	-4%
O=C(N/N=C/c1cnc(N2CCCCC2)s1)c1ccc(C(F)(F)F)cc1	-1%	nt	0%	-30%	nt	-10%	nt	nt
C=CCn1c(SCc2ccc3nonc3c2)nnc1-c1cccs1	-3%	-8%	-8%	18%	?	12%	0.2%	1%
Cc1cccc(NC(=O)c2cc(Cl)ccc2[N+](=O)[O-])c1	-2%	3%	1%	-10%	?	-12%	2.0%	-9%
CC(C)Oc1ccc(C(=O)NC(Cc2c[nH]c3ccccc23)C(=O)NN)cc1 (configuration not stated)	-1%	nt	18%	48%[activator]	nt	2%	nt	nt
COc1ccccc1CN1CC(C(=O)N(C)CCOc2ccccc2)CCC1=O (configuration not stated)	0%	nt	-2%	-1%	nt	1%	nt	nt
O=C(NCc1ccco1)C1CCCN(S(=O)(=O)c2cccc3cccnc23)C1 (configuration not stated)	16%	-4%	0%	2%	nt	-10%	-4.5%	nt
O=C(O)c1ccc(Nc2nc(-c3ccccc3)nc3ccccc23)cc1	2%	nt	1%	-24%	nt	?	nt	nt
NN/C(=C\[N+](=O)[O-])Nc1ccccc1	0%	nt	nt	18%	-8%[46.1 µM]	-17%	nt	5%[46.1 µM]
c1ccc2sc(N3CCNCC3)nc2c1	0%	nt	3%	-17%	0%[46.1 µM]	-4%	nt	15%
Cc1ccc(Cl)cc1NC(=O)Cn1ncc2c(C)n(Cc3ccccc3F)c(C)c2c1=O	nt	6%	nt	-11%	-24%[46.1 µM]	nt	-4.9%	0%[46.1 µM]
CSCCC(NC(=O)c1ccccc1Cl)C(=O)NCC1COc2ccccc2O1 (configuration not stated)	1%	nt	nt	-12%	-6%	-6%	nt	-22%
N=C1/C(=C/c2ccc(OCc3ccccc3F)cc2)C(=O)N=C2SC(CC(=O)N3CCOCC3)=NN12	-9%	nt	-49%	6%	nt	-13%	nt	nt
CCn1c2ccc(C)cc2c2nnc(SCCN3CCOCC3)nc21	2%	nt	-5%	?	?	8%	nt	?
O=c1[nH]oc(O)c1-c1ncc(C(F)(F)F)cc1Cl	?	nt	nt	-11%	?	5%	nt	15%[46.1 µM]
CCOC(=O)CNC(=O)COc1coc(CN2CCN(c3ccccc3F)CC2)cc1=O	-4%	nt	15%	-5%	nt	11%	nt	nt
COC(=O)CSc1nc2c(c(C3CC=CCC3)c1C#N)CCC2 (configuration not stated)	-32%	-5%	9%	-8%	1%	1%	-8.1%	4%
COC(=O)CCCC(=O)NC(C)c1cnn(-c2ccccc2C)c1C (configuration not stated)	0%	nt	3%	9%	-12%[46.1 µM]	13%	nt	0%[46.1 µM]
C=CC(=O)N1c2ccccc2Sc2ccc(NC(=O)OCC)cc21	nt	nt	nt	13µM*	?	4%	nt	?
CC1CCCCC1NC(=O)C1CCC(CNS(=O)(=O)c2ccc(F)cc2)CC1 (configuration not stated)	-1%	nt	0%	-7%	14%[46.1 µM]	-5%	nt	-5%[46.1 µM]
CC(C)n1c(=O)[nH]c2ccccc21	-5%	6%	-4%	15%	-20%	-14%	-1.8%	nt
COC(=O)CC1COc2ccccc2N1C(=O)c1cccc(C(F)(F)F)c1 (configuration not stated)	-3%	nt	nt	-15%	-3%	0%	nt	-4%
Cc1ccc(-n2ncc3c2CC(C)(C)CC3NC(=O)CCCN2CCCC2=O)cc1 (configuration not stated)	-4%	nt	6%	-2%	nt	2%	nt	nt

Assay outcomes deposited in PubChem by National Center for Advancing Translational Sciences (NCATS).
